Bioassay records from PubChem BioAssay.
2A StopGo – High Throughput Screening for Foot and Mouth Disease Virus Antivirals. human cells with a luciferase reporter of 2A StopGo recoding; control for the full effect not named in the record. Potency, µM (doses to about 57.9 µM), without a hit: at the highest dose signal change, negative = less light. actives 1.2% (n = 410,000). AID 1159524, 2015; active = well fitted falling curve with a large enough effect; inconclusive = small, poorly fitted or top-dose-only effect; inactive = no such curve, though single readings can be large or run the other way; tested in HEK293T cells; note: % is set by controls: 0 for no effect and ±100 for the full control effect; nearly all actives have a fitted effect of over 45% in size; luciferase light after 4 h
RE007 growth inh – qHTS Assay for Inhibitors of the HIV-1 protein Vpr; S. pombe RE007 Vpr strain, BacTiter-Glo ATP luminescence, 24 h; control for the full effect not named in the record; actives 0.21% (n = 360,000); Potency, µM (highest dose often 92.2 µM), inactives show top-dose activity change, negative = less growth; active = well fitted falling curve with a large enough effect; inconclusive = small, poorly fitted or top-dose-only effect; inactive = no such curve, though single readings can be large or run the other way;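 note: % is set by controls: 0 for no effect and ±100 for the full control effect; nearly all actives have a fitted effect of over 50% in size; the assay follows cell death caused by Vpr and the record does not say whether a fall means rescue or toxicity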
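Fission yeast strain RE007, carrying one chromosomally integrated HIV-1 vpr copy, was seeded at OD 0.01 in PMG+AL medium with 23 nL pinned compound. After 24 h at 30 °C and 99% humidity, viability was read by BacTiter-Glo luminescence.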
SARS PLpro yeast – qHTS of Yeast-based Assay for SARS-CoV PLP; actives 0.19% (n = 330,000); Potency, µM (highest dose often 32.9 µM), inactives show at the highest dose activity, positive = growth rescue; AID 485353, 2010; S. cerevisiae expressing SARS-CoV PLpro, growth rescue; control for the full effect not named in the record; active means well fitted rising curve with a large enough effect; inconclusive means small, poorly fitted or top-dose-only effect; inactive means no such curve, though single readings can be large or run the other way; note: 0% is about no effect; nearly all actives have a fitted effect of over 55% in size; growth read by luminescence after 48 h
* hit, by the source's call; u = inconclusive; [ ] = remark or other dose. Potency is the fitted concentration of half-maximal effect.

SMILES	2A StopGo	RE007 growth inh	SARS PLpro yeast
NS(=O)(=O)c1cccc(NC(=O)COC(=O)CNC(=O)c2ccc(-c3ccccc3)cc2)c1	46%[activator]	12%	-2%
O=C(CNC(=O)c1ccccc1F)NCCc1ccccc1F	54%[activator]	2%	0%
COc1ccc(C(C)(C)C)cc1NC(=O)CCn1[nH]c(=O)ccc1=O	-1%	0%	0%
Nc1cccc(C(=O)OCC(=O)NC2CCCc3ccccc32)c1 (stereo not drawn)	4%	6%	2%
CCN(c1ccccc1)S(=O)(=O)c1ccc(C(=O)NCCCN2CCOCC2)cc1	-21%	-9%	2%
Cc1noc(C)c1NC(=O)Nc1ccc2c(c1)C(=O)N([C@H](C)CO)C[C@H](C)[C@@H](CN(C)C(=O)Nc1ccccc1)O2	-15%	2%	1%
C[C@]12CC[C@H](O)C[C@H]1CC[C@@H]1C2CC[C@]2(C)[C@@H](C3=CC(=O)OC3)[C@@H](O)C[C@]12O (stereo partly drawn)	u	14%	3%
COC(=O)C1=C(c2ccc(OC)c(OC)c2)C[C@@H]2CC[C@H]1N2C(=O)NC1CCCCC1	-13%	-19%	-2%
CCc1ccc(S(=O)(=O)Nc2ccc(-c3ccc4nnc(C)n4n3)cc2)s1	38%[activator]	-10%	9%
COc1ccc(C=O)cc1C1=CC(=O)C[C@H](c2ccc(Cl)cc2)C1	-24%	9%	-13%
CC1CCC(NC(=O)CN2CCN(S(=O)(=O)c3cccs3)CC2)CC1 (stereo not drawn)	-23%	9%	5%
C#CCOCCOCCOCCNc1nc(N2CCN(C(=O)CCCCCCCCCCNC(=O)[C@@H](CCC(=O)O)n3cc(CCCCCN)nn3)CC2)nc(N2CCN(C(=O)CCCCCCCCCCNC(=O)[C@@H](CCC(=O)O)n3cc(CCCCCN)nn3)CC2)n1	-18%	16%	-3%
COc1ccc(NC(=O)C(C)N=C2NS(=O)(=O)c3ccccc32)cc1S(N)(=O)=O (stereo not drawn)	-4%	-4%	0%
CN(C(=O)COC(=O)c1cn(C)c2ccccc12)C1CCCCC1	-6%	1%	1%
COC(=O)C1=C(c2ccc(OC(F)(F)F)cc2)C[C@@H]2CC[C@H]1N2C(=O)NCCNC(C)=O	-6%	7%	4%
O=C(OCC(=O)c1c[nH]c2ccccc12)c1cccc([N+](=O)[O-])c1	27%	1%	-2%
NCC(=O)NCC(=O)NC[C@H]1O[C@@H](n2cnc3c(N)ncnc32)[C@H](O)[C@@H]1O	-12%	-6%	-9%
COc1ccc(Cc2cc(NCc3ccccc3)c3ncn(C(C)C)c3c2)cc1	-25%	-17%	2%
CCOC(=O)C1=CC[C@H]2c3c(c4ccccc4n3C)C(=O)C1N2C	-1%	14%	1%
COc1ccc(CC(=O)NCc2n[nH]c(=S)n2-c2ccccc2OC)cc1	0%	-1%	3%
CN(C)C1=NC[C@H](Cc2ccccc2)N1CCCC1CCCCC1	u	-18%	-15%
NC(=O)c1ccsc1NC(=O)COC(=O)CNC(=O)c1cccc([N+](=O)[O-])c1	-13%	-12%	-2%
COc1ccc(OC)c(/C=C/C(=O)OCC(=O)NC2CCCCCCC2)c1	-12%	4%	0%
COc1ccc(S(=O)(=O)Nc2cccc3c2O[C@H](CN(C)S(=O)(=O)c2ccc(Cl)cc2)[C@H](C)CN([C@H](C)CO)C3=O)cc1	-22%	1%	4%
CC(NC(=O)c1ccccc1)C(=O)NNC(=O)c1ccccc1Cl (stereo not drawn)	-2%	3%	1%
C#CCOCCOCCOCCNc1nc(N2CCN(C(=O)[C@H]([C@@H](C)CC)n3cc([C@@H](N)CO)nn3)CC2)nc(N2CCN(C(=O)[C@H](CCCCN)n3cc([C@@H](N)CO)nn3)CC2)n1	13%	-8%	0%
CSc1ccccc1NC(=O)CN(C)C(=O)c1ccc(NC(=O)c2cccs2)cc1	-13%	-2%	7%
O=C(N[C@H]1C/C=C\C[C@@H](CC(=O)N(CCO)Cc2ccccc2)C(=O)N[C@H](Cc2c[nH]c3ccccc23)COC1=O)OCC1c2ccccc2-c2ccccc21	-13%	-1%	3%
CC1CCCC(C)N1C(=O)COC(=O)c1cccc(S(=O)(=O)N(C)c2ccccc2)c1 (stereo not drawn)	-25%	-5%	5%
Fc1cc(F)cc(-c2c(-c3ccccc3)ncc3ccc(F)cc23)c1	-13%	-4%	-2%
CCCCN1C(=O)N(CCc2ccc(F)cc2)S(=O)(=O)c2cc(C(F)(F)F)ccc21	21%	-3%	-24%
COc1cc(NC(=O)c2[nH]cnc2C(N)=O)cc(C(=O)Nc2cccc(C(F)(F)F)c2)c1	0%	2%	-34%
CC(C)CC(=O)N1CCN(S(=O)(=O)c2ccc(C3CCCCC3)cc2)CC1	u	6%	5%
CCNC(=S)NNC(=O)c1nn(C)c(C)c1Cl	-2%	-8%	0%
COc1ccc(-c2nc(N)nc(N)n2)c(O)c1	0%	-7%	-1%
Cc1noc(C)c1CC(=O)Nc1ccc2c(c1)OCO2	32%	2%	1%
Cc1noc(C)c1S(=O)(=O)N(C)C[C@H]1Oc2ccc(NC(=O)NC(C)C)cc2C(=O)N([C@H](C)CO)C[C@@H]1C	-14%	48%	2%
NS(=O)(=O)c1ccc(CCNC(=O)COC(=O)c2nc(Cl)ccc2Cl)cc1	1%	14%	2%
C/C=C/c1cc(CN2CCN(c3ccccc3)CC2)c(O)c(OC)c1	-6%	2%	-3%
O=C(c1ccc([N+](=O)[O-])cc1[N+](=O)[O-])n1cnc2ccccc21	-22%	-15%	1%
CC(C)(C)C(=O)Nc1ccc(C(=O)COC(=O)c2ccccn2)cc1	-5%	1%	1%
Cc1ccc2nc(SCC(=O)NCCCN3CCCC3=O)[nH]c2c1	6%	-2%	-1%
C#CCOCCOCCOCCNc1nc(N2CCN(C(=O)[C@H](CCCN=C(N)N)n3cc(C(N)[C@@H](C)CC)nn3)CC2)nc(N2CCN(C(=O)[C@H](CCC(=O)O)n3cc([C@@H](N)CC(N)=O)nn3)CC2)n1 (stereo partly drawn)	-16%	5%	4%
CCOC(=O)c1c(C)[nH]c(C(=O)COC(=O)c2cnccn2)c1C	3%	2%	-2%
Cc1cccc(COc2ccccc2C(=O)N(C)CC(=O)Nc2cccc(F)c2)c1	-1%	-5%	2%
Cc1cc(NC(=O)CCCn2nc([N+](=O)[O-])c(Cl)c2C)no1	-18%	-17%	1%
Cc1cc(C)c(S(=O)(=O)N2CCN(C(=O)C3CCCO3)CC2)c(C)c1 (stereo not drawn)	u	17%	-3%
COc1ccc(-c2cc(C(=O)N3CCCC(C(F)(F)F)C3)c3ccccc3n2)cc1 (stereo not drawn)	5%	-7%	7%[6.58 µM]
COc1ccccc1C(C)NC(=O)CN(C)CC(=O)Nc1c(C)cccc1C (stereo not drawn)	-13%	-2%	-4%
O=C(Nc1ccc(Cl)c(S(=O)(=O)N2CCOCC2)c1)C1CCCC1	u	-6%	7%
(cont.)
SMILES	2A StopGo	RE007 growth inh	SARS PLpro yeast
CCCCn1c(SCC(=O)NNC(=O)c2ccccc2)n[nH]c1=O	4%	-4%	-2%
Cc1ccc(CC(NC(=O)C2CCCCC2)C(=O)O)cc1 (stereo not drawn)	-4%	-20%	18%
O=C(Cc1ccccc1[N+](=O)[O-])NNC(=O)c1ccncc1	-26%	3%	-7%
Cc1cc(C(=O)NNC(=S)NCc2ccco2)nn1C	8%	4%	0%
O=C(COC(=O)c1cc(S(=O)(=O)N2CCOCC2)ccc1F)Nc1ccc(Cl)cn1	-1%	-9%	-3%
NC(=S)N/N=C/c1ccc(Br)o1	4%	-4%	u
O=C(COC(=O)/C=C/c1ccc(F)cc1)NCc1cccs1	-15%	-14%	8%
O=C(CSc1nnnn1-c1ccccc1)NC(=O)Cc1ccccc1	-8%	1%	-2%
CN(CC(=O)NNC(=O)CNC(=O)c1ccccc1F)S(=O)(=O)c1ccc(Cl)cc1	-13%	8%	1%
COc1cc(OC)cc(-c2c(-c3cccs3)c3cc(-c4ccc(OCc5ccccc5)cc4)ccc3n2C)c1	-1%	2%	-2%
COc1cc(OC)cc(-c2c(-c3cccs3)c3cc(-c4ccn[nH]4)ccc3n2C)c1	-3%	1%	1%
O=C(NC1CCCC1)c1cccc2c1C(=O)c1ccc(/C=C/c3ccccc3)cc1S2(=O)=O	-3%	3%	-10%
CCCOc1ccc(NC(=O)CC2C(=O)OCC3CCCCN32)cc1 (stereo not drawn)	-5%	u	-21%
COc1ccc(CSc2nc3ccccc3c(=O)[nH]2)cc1F	0%	7%	-2%
CN1CCN(c2ccc(NC(=O)c3cc(S(N)(=O)=O)ccc3N3CCOCC3)cc2)CC1	1%	-2%	-1%
CC1CCN(c2ccc3c(c2)S(=O)(=O)c2cccc(C(=O)NC4CC4)c2C3=O)CC1	21%	2%	8%
CCOC(=O)c1sc(NC(=O)C2CC(=O)N(c3ccccc3OC)C2)nc1C (stereo not drawn)	-15%	19%	-5%
CC(C)[C@H]1COCCS(=O)(=O)N1Cc1ccccc1-c1ccc(C(C)(C)C)cc1	u	15%	-40%
CCOC(=O)[C@H]1[C@H]2COc3ccc(OC)cc3[C@@H]2N2C(=O)CN(Cc3ccc(C)cc3)C(=O)[C@@]12C	-19%	5%	3%
O=c1cc(-c2ccccc2)oc2ccc(Br)cc12	30%	-7%	-1%
O=C(COC(=O)c1ccccn1)NCc1ccc(Cl)cc1Cl	-4%	21%	11%
O=C(/C=C/c1ccccc1Cl)OCC(=O)c1ccc[nH]1	67%[activator]	u	1%
Cc1nc(NC(=O)COC(=O)CCc2ccccc2)c(Cl)cc1Cl	7%	1%	-4%
Cc1c(C(=O)NC2CCCC2)oc2ccccc12	14%	-15%	2%[6.58 µM]
C[C@@H](CN1CCC[C@H]1CN1C(N)=NC[C@@H]1Cc1ccccc1)N1C[C@@H](Cc2ccccc2)N(CCc2ccc(Cl)c(Cl)c2)C1=N	-15%	21%	0%
C=CCNc1nc(C(=O)OCC(=O)NCc2cccc(Cl)c2)cs1	-17%	-21%	1%
O=C(CSc1nc2ccccc2c(=O)n1-c1ccccc1)N/N=C/C=C/c1ccccc1[N+](=O)[O-]	-24%	-10%	0%
CCN(C[C@H]1N[C@@](CC)(C(=O)OC)[C@H]2C(=O)N(C)C(=O)[C@@H]12)S(=O)(=O)c1ccc(-c2ccccc2)cc1	u	13%	7%
COc1ccc(NS(=O)(=O)c2cc(NC(=O)c3ccccn3)ccc2OC)cc1Br	77%[activator]	11%	-2%
O=C(Cc1cccc(NC(=O)C2CCCN(C(=O)CCc3ccccc3)C2)c1)Nc1cccc(C(=O)N2CCCC2)c1 (stereo not drawn)	-14%	-14%	-6%
Cn1c(=O)c2cc(S(=O)(=O)NCCC(=O)Nc3ccc(F)cc3F)ccc2n(C)c1=O	15%	-2%	-3%

Arranged by number of heavy atoms (descending): part of the list above
SMILES	2A StopGo	RE007 growth inh	SARS PLpro yeast
C[C@@H](CN1CCC[C@H]1CN1C(N)=NC[C@@H]1Cc1ccccc1)N1C[C@@H](Cc2ccccc2)N(CCc2ccc(Cl)c(Cl)c2)C1=N	-15%	21%	0%
O=C(Cc1cccc(NC(=O)C2CCCN(C(=O)CCc3ccccc3)C2)c1)Nc1cccc(C(=O)N2CCCC2)c1 (stereo not drawn)	-14%	-14%	-6%
CCN(C[C@H]1N[C@@](CC)(C(=O)OC)[C@H]2C(=O)N(C)C(=O)[C@@H]12)S(=O)(=O)c1ccc(-c2ccccc2)cc1	u	13%	7%
CCOC(=O)[C@H]1[C@H]2COc3ccc(OC)cc3[C@@H]2N2C(=O)CN(Cc3ccc(C)cc3)C(=O)[C@@]12C	-19%	5%	3%
Cn1c(=O)c2cc(S(=O)(=O)NCCC(=O)Nc3ccc(F)cc3F)ccc2n(C)c1=O	15%	-2%	-3%
COc1ccc(NS(=O)(=O)c2cc(NC(=O)c3ccccn3)ccc2OC)cc1Br	77%[activator]	11%	-2%
CC(C)[C@H]1COCCS(=O)(=O)N1Cc1ccccc1-c1ccc(C(C)(C)C)cc1	u	15%	-40%
CCOC(=O)c1sc(NC(=O)C2CC(=O)N(c3ccccc3OC)C2)nc1C (stereo not drawn)	-15%	19%	-5%
C=CCNc1nc(C(=O)OCC(=O)NCc2cccc(Cl)c2)cs1	-17%	-21%	1%
O=C(COC(=O)c1ccccn1)NCc1ccc(Cl)cc1Cl	-4%	21%	11%
O=C(/C=C/c1ccccc1Cl)OCC(=O)c1ccc[nH]1	67%[activator]	u	1%
Cc1c(C(=O)NC2CCCC2)oc2ccccc12	14%	-15%	2%[6.58 µM]

These rows are one share of the data; count on the stated rates, not on these rows.
